TRPML1 blocker: human mucolipin-1 channel inhibition. Q9GZU1. TRPML1-inducible cells, Ca2+ dye fluorescence, FDSS; hits give low values; inhibition of EC80 agonist-evoked calcium signal. activity change, negative = inhibition, % (no concentration beside the values). 390,000 tested, 0.02% active. AID 624415; in the data active means activity change below about -50%; inconclusive means about -30% to -50%; inactive means above about -30%;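 also: stimulus is agonist 54-4 at its EC80 concentration; % is scaled to controls: 0 for no effect and ±100 for the full control effect; compound concentration not given in the record; the text of the record puts the active cut at -80%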
Target sequence (Q9GZU1 whole entry, looked up): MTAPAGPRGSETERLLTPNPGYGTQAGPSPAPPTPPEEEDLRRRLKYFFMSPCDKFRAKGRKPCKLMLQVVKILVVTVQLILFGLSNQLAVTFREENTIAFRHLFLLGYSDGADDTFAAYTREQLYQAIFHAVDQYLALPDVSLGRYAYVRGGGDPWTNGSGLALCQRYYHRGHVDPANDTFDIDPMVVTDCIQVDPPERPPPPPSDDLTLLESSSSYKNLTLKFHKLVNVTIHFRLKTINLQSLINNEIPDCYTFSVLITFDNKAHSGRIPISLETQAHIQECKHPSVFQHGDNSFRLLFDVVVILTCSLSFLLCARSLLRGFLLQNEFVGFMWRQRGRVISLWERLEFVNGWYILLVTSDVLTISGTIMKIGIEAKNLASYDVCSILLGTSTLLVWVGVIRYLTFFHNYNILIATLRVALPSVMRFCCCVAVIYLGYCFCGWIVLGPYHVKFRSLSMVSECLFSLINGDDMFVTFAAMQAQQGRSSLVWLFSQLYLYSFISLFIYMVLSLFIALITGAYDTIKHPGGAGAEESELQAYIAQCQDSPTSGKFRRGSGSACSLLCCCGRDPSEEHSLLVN
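Tet-induced TRPML1-DL cells loaded with Ca8 no-wash calcium dye were read kinetically on FDSS. Compound addition was followed by EC80 agonist 54-4 (4 uM final); inhibition was read over 110 s.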
gsp agonist: gsp mutant agonism; gsp mutant cells, cAMP HTRF, 30 min; control for the full effect not named in the record; Potency, µM (top dose mostly 76.9 µM), without a hit: at the highest dose activation (cAMP increase), actives largely listed as activators; 340,000 tested, 0.13% active; AID 624287; active = well fitted activation curve with a large enough effect; inconclusive = small, poorly fitted or top-dose-only effect, or another doubt; inactive = no such curve, though single readings can be large or run the other way; cell line not stated here;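 also: phosphodiesterase inhibitor Ro 20-1724 added with compounds to block cAMP breakdown; potency is read from the fitted curve at half-maximal effect; nearly all actives have a fitted effect of over 60% in size; about a fifth of the inactives were tested at one dose only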
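Cells stably selected in G418 were plated at 2000/well, grown 16-24 hr, then given compounds in DMSO with the PDE inhibitor […] (300 uM solution added) for 30 min at 37C; cAMP was read by HTRF.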
Menin MLL FP FL: inhibitors of human menin-MLL interaction, wild-type MLL peptide. Fluorescence polarization, fluorescein-MLL peptide displacement from menin. FP activity change, % at 61.4 µM. 290,000 tested, under 10 active; inconclusive = falling polarisation curve, or a change in total fluorescence; inactive = total fluorescence flat and polarisation flat or rising; no compound was filed as active; the % refers to the polarisation; negative = inhibition;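 also: % of control where 0% means no effect; inhibitors lower the polarisation; unlabelled MLL peptide was the positive control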
TRPML1 agonist: activates the human TRPML1 channel; AID 624414; TRPML1-expressing cells, Ca2+ dye fluorescence, FDSS; host cell line not named in the record; reference of the full effect not given here; 410,000 tested, 0.12% active; Q9GZU1; activation, % (test concentration not listed); in the data active = activation above about 50%; inconclusive = about 30% to 50%; inactive = below about 30%; also: 0% is about no effect; the text of the record puts the active cut at 80%
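Tetracycline-induced TRPML1-DL cells are seeded and incubated overnight before loading with a no-wash Ca2+ dye and quencher. Agonist activity is taken from the 110 s fluorescence read following compound pin-transfer on an FDSS, before EC80 54-4 challenge.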
ClpP mod: qHTS Assay for Activators of ClpP. purified B. subtilis ClpP, FRET peptide cleavage, 20 min. Potency, µM (highest dose often 57.5 µM), without a hit: top-dose activity change, negative = active. 340,000 tested, 1.9% active. AID 651965, 2013; active = well fitted falling curve with a large enough effect; inconclusive = small, poorly fitted or top-dose-only effect; inactive = no such curve, though single readings can be large or run the other way; also: potency is read from the fitted curve at half-maximal effect; the source files actives as falling curves though it sought activators and does not explain the sign; nearly all actives have a fitted effect of over 65% in size; many hits overshoot -100%
Target sequence (P80244 whole entry, looked up): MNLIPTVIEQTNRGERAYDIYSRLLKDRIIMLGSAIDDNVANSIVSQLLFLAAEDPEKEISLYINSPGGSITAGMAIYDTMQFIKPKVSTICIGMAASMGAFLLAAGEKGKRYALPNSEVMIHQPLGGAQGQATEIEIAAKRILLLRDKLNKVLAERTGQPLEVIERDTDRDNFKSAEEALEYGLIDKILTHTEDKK
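ClpP 10 microg/mL final, pH 8 Tris/KCl buffer with BSA, glycerol, Tween-20; compound pinned in; FRET-FV substrate; RT 20 min; Ex320/Em430; ΔFRET vs ADEP 5.8 microM, DMSO, no enzyme.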
gsp antag: antagonizes gsp, the McCune-Albright syndrome mutation; gsp-mutant cells, cAMP HTRF, 30 min; control for the full effect not named in the record; Potency, µM (highest dose often 76.9 µM), for the others: top-dose activity change, negative = inhibition, actives largely listed as inhibitors; 340,000 tested, 0.4% active; AID 624288; active = falling curve of any shape with a large fitted effect; inconclusive = falling curve, mostly with a smaller effect; inactive = flat or rising curve; cell line not stated here;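 also: intracellular cAMP measured with PDE inhibitor Ro 20-1724 present during compound exposure; potency is read from the fitted curve at half-maximal effect; % is scaled to controls: 0 for no effect and ±100 for the full control effect; nearly all actives have a fitted effect of over 65% in size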
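G418-selected cells were plated in DMEM/10% FBS for 16-24 h at 37C, then treated with compounds plus the PDE inhibitor […] (300 uM solution added) for 30 min at 37C. Intracellular cAMP was measured by HTRF after 30 min lysis at room temperature.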
* marks the source's active call; other numbers are inactive results; u = inconclusive; x = no result given; & = joins results of further samples; [ ] = dose if it differs, or a comment.

SMILES | ClpP mod | TRPML1 blocker | TRPML1 agonist | gsp antag | Menin MLL FP FL | gsp agonist
CC1CN(C(=O)COC(=O)c2cccc(S(=O)(=O)N3CCc4ccccc43)c2)CC(C)O1 (centres undefined) | x | -10.6 | 1.0 | -5.4% | x | -10.3%
O=C(Nc1nc(-c2ccc(F)cc2)cs1)c1cccnc1 | -0.3% | 6.9 | -1.9 | -0.1% | 3.7 | 6.8%[15.4 µM]
Cc1ccc(CNS(=O)(=O)c2cc3[nH]c(=O)c(=O)[nH]c3cc2C)cc1 | 4.4% | -21.5 | 1.8 | x | x | x
Cc1ccccc1NC(=O)Cn1nnc2sc3c(c2c1=O)CC(C)(C)OC3 | x | u | 0.3 | -0.8% | -0.1 | u
COc1ccccc1NC(=O)CCC(=O)OCC(=O)c1ccc(C)c([N+](=O)[O-])c1 | -2.2% | 9.1 | -0.8 | 9.1% | x | 13.9%
Cc1nn(C(=O)c2c(F)cccc2F)c(C)c1S(=O)(=O)N1CCOCC1 | -0.2% | 10.7 | 0.2 | x | x | x
CCc1cc(=O)oc2cc3oc(C)c(C)c3cc12 | -7.0% | 8.0 | -0.4 | 8.8% | 9.7 | 7.0%
O=C1OCCC1=COCCCCOC=C1CCOC1=O | 1.9% | 4.7 | -0.5 | x | x | -17.1%
CCCCn1c(-c2ccc(OC(F)F)cc2)nc2c1c(=O)[nH]c(=O)n2CC(C)C | x | 53.3 | 4.4 | u | 2.0 | 6.0%
CCC(=O)N(CCc1ccccc1)Cc1cc2ccc(OC)cc2[nH]c1=O | 4.3% | 7.7 | 0.6 | -13.9% | -4.0 | -25.4%
CCn1nnnc1SCC(=O)Nc1cccc(NC(C)=O)c1 | -0.8% | 8.0 | -0.6 | 3.5% | 4.5 | -1.0%
COCCNCc1ccc(C(C)C)cc1 | 0.7% | -7.9 | 0.0 | 13.0% | 7.7 | u
Cn1c(=O)c2[nH]c(-c3ccc(S(=O)(=O)O)cc3)nc2n(C)c1=O | 4.4% | -0.3 | -0.6 | -6.2% | 5.4 | x
S=c1[nH]nc(C2CCCCC2)n1/N=C/c1ccc(Cl)cc1 | x | 1.8 | 3.0 | -3.5% | 1.9 | 34.2%
O=C(CSc1ncc(CO)n1Cc1ccccc1)Nc1nc2ccccc2s1 | -4.0% | -12.5 | 0.3 | x | x | x
Cn1ncc(S(=O)(=O)Cc2ccccc2)c(Cl)c1=O | x | -4.3 | 0.1 | 14.2% | 1.8 | 14.7%[15.4 µM]
CC1(OC(=O)c2cccs2)C(=O)C=C2C=C(C3CC3)OC=C2C1=O (centres undefined) | -0.7% | -0.4 | 3.0 | -4.0% | 1.2&4.9 | x
CC1CCCN(C(=O)CSc2nnc(-c3ccc(S(=O)(=O)N4CCOCC4)cc3)n2C)C1 (centres undefined) | -25.2% | 4.0 | 1.2 | -1.4% | 2.4 | -0.2%
Cc1cc(C)c2c(N)c(C(=O)NC3CC3)sc2n1 | -15.9% | -7.1 | -0.8 | -0.2% | 1.6 | 6.3%
CCC1(CC)NC(=O)N(CC(=O)OCC(=O)Nc2ccc(F)c(F)c2F)C1=O | 0.2% | -11.7 | -1.1 | 1.2% | 1.5 | -3.6%[15.4 µM]
CCn1c(=O)c(CCC(=O)NCC2CCCO2)c(C)c2c(C)nn(-c3ccc(C)cc3)c21 (centres undefined) | -25.2% | -7.9 | 0.3 | 0.5% | x | 26.9%
C=CCNC(=S)N/N=C(\C)c1ccccn1 | -0.4% | -0.5 | 0.6 | 4.6% | 0.9 | 2.1%
CC1=NN(C(N)=S)C(=O)C1N=Nc1ccc(Br)cc1 (centres undefined) | 1.0% | 2.3 | 1.2 | -11.6% | -7.0 | -24.1%[15.4 µM]
O=C(N/N=C/C(Br)=C\c1ccccc1)c1cccs1 | x | 1.4 | 0.0 | -2.1% | 0.3 | -6.2%[15.4 µM]
CCc1c(C)nc2nncn2c1Nc1ccc(Cl)cc1 | 2.1% | -0.2 | 0.3 | x | x | x
O=C(NCCCN1CCCC1=O)C1CCC(CNS(=O)(=O)c2ccc(Cl)cc2)CC1 (centres undefined) | -3.7% | 18.1 | 0.1 | 5.6% | -8.0 | -23.7%
COc1ccc(CCC(=O)NNC(=O)c2cc(Cl)ccc2OC)cc1OC | x | -14.1 | 4.2 | 4.4% | 1.7 | -30.4%[inhibitor]
COc1ccc(/C=N/NC(=O)c2cccnc2)cc1COc1ccc([N+](=O)[O-])c(C)c1 | x | 3.9 | 0.8 | u | 2.5 | 3.5%[15.4 µM]
Cc1[nH]c2ccc(F)cc2c1CCN(Cc1ccncc1)C(=S)Nc1ccccc1 | x | 1.6 | 0.2 | -20.1% | -3.1 | -0.3%[15.4 µM]
N#Cc1c(N)n(-c2ccc(C(=O)O)cc2)c2nc3ccccc3nc12 | 3.8% | -3.0 | 0.8 | 8.5% | u | u
COc1ccc(-c2nnc(Sc3nc4ccccc4o3)c3ccccc23)cc1 | -0.7% | 52.8 | 1.1 | -18.7% | -0.7 | -27.4%
COCCCNCCCOc1ccc(Cl)cc1Br | -3.0% | u | 2.0 | 5.7% | 3.2 | -32.1%[inhibitor]
O=C1CCSC2(C(=O)N(Cc3ccc(F)cc3)c3ccccc32)N1c1ccccc1 (centres undefined) | 0.9% | 15.7 | 1.2 | x | x | x
O=C(CCN1C(=O)NC2(CCCC2)C1=O)Nc1cccc(S(=O)(=O)N2CCOCC2)c1 | 0.9% | -9.0 | 3.2 | 15.3% | x | 17.8%
CC(C)(O)/C=C/C[C@](C)(O)C1CC[C@]2(C)C1[C@H](O[C@H]1O[C@@H](CO)[C@H](O)[C@@H](O)[C@@H]1O)CC1[C@@]3(C)CC[C@H](O)C(C)(C)C3[C@@H](O)C[C@]12C (some centres undefined) | 0.8% | 26.9 | -0.6 | 10.6% | x | x
Cc1ccccc1OCC(=O)OCC(=O)Nc1ccc2c(c1)OCCO2 | 1.2% | -10.3 | 0.3 | 7.5% | x | u
Cc1ccc(N2C(=O)c3ccccc3NC2C(C)Cc2ccc3c(c2)OCO3)cc1 (centres undefined) | 31.6µM* | 19.4 | -0.3 | u | -0.2 | 5.5%
CCc1ccc(NC(=O)CS(=O)CC(=O)NC(C)CCc2ccco2)cc1 (centres undefined) | 0.8% | -10.4 | -1.0 | 8.5% | -2.1 | 2.1%
Cc1ccc(CNC(=O)CN(C(=O)N2CCN(C)CC2)S(=O)(=O)c2ccc(C)cc2)cc1 | 1.3% | -1.3 | -0.7 | 5.2% | x | -9.5%
COc1cc(NC(=O)Cn2cc(C(=O)c3ccc(F)cc3)c(=O)c3ccc(C)nc32)cc(OC)c1 | 1.3% | 10.9 | 4.2 | x | x | x
COc1ccccc1CNC(=O)c1cc(-c2ccncc2)nc2c(Cl)cccc12 | -8.8% | 27.9 | 3.1 | -22.2% | x | -29.5%
COc1ccc(OC)c(C(=O)CSc2nnc(Cc3cccs3)n2CCc2ccccc2)c1 | -3.4% | 35.0 | 1.7 | -11.9% | -0.5 | 7.1%
Clc1ccc(Nc2c(-c3cccs3)nc3ccc(Cl)cn23)cc1 | -7.9% | -13.4 | -0.2 | x | x | x
COc1cc2cc(Br)cc(Br)c2nc1C | -1.0% | 0.0 | -0.9 | 31.7%[activator] | 1.7 | u
O=C(CCc1ccccc1)Nc1ccc(S(=O)(=O)NC2=NCCCCC2)cc1 | x | 7.4 | 0.3 | -1.8% | x | -1.0%[15.4 µM]
COc1ccc(CNC(=O)c2cnc3sc(N4CCOCC4)nn3c2=O)cc1 | u | 11.4 | 0.2 | x | x | x
Nc1nc(SCC(=O)Nc2cc(-c3ccccc3)nn2-c2ccccc2)n[nH]1 | -0.3% | 17.8 | -0.3 | -8.9% | 1.9 | -4.7%
COc1cccc(N2CC(NC(=O)COc3ccc4ccccc4c3)CC2=O)c1 (centres undefined) | -2.3% | -11.5 | -0.4 | x | x | x
Cc1ccc(NC(=O)NCc2cccn2C)cc1C | x | -16.8 | -0.6 | -1.3% | 7.0 | 2.0%
OCCCn1c(-c2ccc(F)cc2)csc1=Nc1ccc(F)cc1 | -3.4% | -9.4 | -0.2 | x | x | x

(next part)
SMILES | ClpP mod | TRPML1 blocker | TRPML1 agonist | gsp antag | Menin MLL FP FL | gsp agonist
CC(C)c1ccc(-c2cc(C(=O)N3CCOCC3)c3cc(Br)ccc3n2)cc1 | u | -5.9 | 1.4 | -2.1% | x | 16.2%[15.4 µM]
CC(=O)NC1=C(NC2CCS(=O)(=O)C2)C(=O)c2ccccc2C1=O (centres undefined) | -3.1% | -14.8 | -0.8 | -37.5% | 14.8 | u
Cc1ccc(C(=O)NCCNC(=O)c2ccco2)cn1 | x | -3.0 | 0.6 | 6.3% | -2.4 | -3.8%
CCN(CC)c1nn2c(=O)c(C(=O)NCCc3ccccc3)cnc2s1 | 28.2µM* | 26.2 | -0.3 | x | x | x
C/C(=N\NC(=O)c1nnn(-c2nonc2N)c1CN1CCc2ccccc21)c1ccccc1O | 0.9% | -7.5 | -0.1 | -11.4% | -1.9 | 26.0%
O=C(Nc1cc(C(F)(F)F)ccc1N1CCOCC1)C1CC1 | 0.8% | 13.8 | -0.5 | 1.4% | x | -16.5%
O=C(O)C1(P(=O)(c2ccccc2)c2ccccc2)CCCC1 | 0.0% | -9.3 | -0.2 | 8.5% | -5.3 | u
COC(=O)Cn1c(CN(Cc2ccccc2)Cc2ccccc2)nc2c1c(=O)[nH]c(=O)n2C | -3.7% | -14.3 | -0.2 | -14.4% | -1.2 | -20.7%
COc1ccc(-c2ccc(=O)n(CC(=O)NC3CCc4ccccc43)n2)cc1OC (centres undefined) | 1.8% | 18.5 | 3.3 | -1.9% | 0.3 | -19.8%
O=S(=O)(N1CCCCCC1)N1CCN(S(=O)(=O)N2CCOCC2)CC1 | -0.6% | -3.1 | -0.3 | 6.2% | 2.8 | 6.0%
O=C(c1ccc(OC2CCN(CCc3ccccc3)CC2)cc1)N1CCCCC1CCCO (centres undefined) | -0.2% | -10.7 | 1.6 | 6.5% | -1.9 | 11.3%[15.4 µM]
COc1ccc(-c2ccccc2)cc1NCc1ccccc1C | 12.6µM* | 1.6 | 0.1 | 8.1% | 8.5 | 10.0%
Cc1ccc(C(=O)Cn2cc([N+](=O)[O-])nc2C)cc1 | x | 3.5 | 0.6 | 2.9% | -0.3 | -0.4%[15.4 µM]
CSc1nc(N)n2nc(C(C)(C)C)cc2n1 | -1.3% | -3.3 | -0.7 | -10.4% | 2.9 | 11.6%[15.4 µM]
CCOC(=O)N1CCC(Nc2ccc(N3C(=O)C4CCCCC4C3=O)cc2[N+](=O)[O-])CC1 (centres undefined) | -2.2% | 17.4 | 0.6 | -20.1% | -0.3 | -32.6%[inhibitor]
COc1ccc(C(=O)N2CCC(N3CCN(c4ccccc4)CC3)CC2)cc1OC | -2.1% | -17.1 | -0.4 | 5.5% | 4.3 | -3.6%
Nc1ccc(Nc2ccccc2)c(Cl)c1 | -1.6% | 30.1 | 2.4 | -15.6% | 3.9 | 18.5%
COc1ccc(OCCCC(=O)Nc2ccc3c(c2)OCO3)cc1 | -3.6% | -5.1 | 0.5 | -4.2% | 3.1 | 5.6%
